Screens: PubChem BioAssay, several laboratories
MT1-MMP act inh: inhibitors of human MT1-MMP activation | HT1080 RFP-PRO-GFP cells, GFP/RFP ratio fluorescence, overnight; percent of plate control window, DMSO zero | GFP/RFP ratio change, % at 20 µM | hit rate 0.061% among 360,000;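 active = GFP/RFP ratio change of at least 30% with cell ATP level not reduced by more than half and red fluorescence within 50% of control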; note: strong numbers were not always called active
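Compound: 20 µM single dose, 1% DMSO / System: HT1080 RFP-PRO-GFP cells / Controls: DMSO and RFP-L50D-GFP cell wells / Read-out basis: GFP/RFP fluorescence ratio / Schedule: overnight compound exposure at 37 °C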
Env fusion inh: HIV envelope-mediated fusion inhibition | HeLa-JRFL Env/CEM21 cell fusion, luciferase | inhibition, % at 12.3 µM | hit rate 1.1% among 360,000;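 active = mean replicate inhibition score of at least 50 and every replicate individually at or above 50; inconclusive = only one of the two criteria met; inactive = mean below 50 and not all replicates reaching 50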;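 note: 0% = plate neutral controls and 100% = maraviroc near 300 nM; one replicate is shown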
PABP FP inh: blocks human PABP binding to poly(A) RNA; fluorescence polarization; inhibition, % at 35 µM; hit rate 1% among 290,000;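 active = 50% or more with normal probe brightness, or confirmed in later tests; inconclusive = above 50% with abnormal brightness, or retests that disagree; inactive = below 50% or failed in later tests; about a fifth of its hits are not listed in these tables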;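 note: calls also rest on retests at 20 µM and on dose response follow-up; controls were probe without protein and protein plus probe with vehicle; some compounds called inactive have numbers as strong as hits; many hits fall short of the cut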
CSC inhib: blocks cancer stem cells. inhibition, % at 7.5 µM. hit rate 1.1% among 300,000. AID 2717. cancer stem cell-like cells viability, luminescence;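 active = mean at 75% or more and at least half the replicates too; inconclusive = mean and replicates disagree; tested in HMLE shEcad cells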;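 note: 0% = median of negative and 100% = median of positive control wells; the first replicate is given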
Rce1 inh: blocks yeast Ras-converting enzyme | AID 2563 | calls only | hit rate 0.27% among 290,000 | yeast membranes, quenched prenylated peptide cleavage fluorescence;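 active = fall in fluorescence gain of 50% or more versus controls, with final raw signal at or below 3038400; inconclusive = same 50% fall but final raw signal above 3038400; inactive = fall in fluorescence gain under 50%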;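 note: plate controls were neutral control wells for no effect and wells lacking membranes for full effect; tested at 10 µM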
Target sequence (Q03530 whole entry, looked up): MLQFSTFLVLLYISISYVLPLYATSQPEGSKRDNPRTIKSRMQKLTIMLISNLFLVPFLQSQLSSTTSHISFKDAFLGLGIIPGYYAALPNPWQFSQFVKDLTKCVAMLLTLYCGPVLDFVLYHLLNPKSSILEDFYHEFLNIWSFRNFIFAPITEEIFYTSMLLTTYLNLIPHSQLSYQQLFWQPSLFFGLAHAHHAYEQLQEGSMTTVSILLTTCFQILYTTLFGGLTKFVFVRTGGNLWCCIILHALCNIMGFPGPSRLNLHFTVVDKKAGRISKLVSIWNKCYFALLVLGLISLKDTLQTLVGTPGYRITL
eIF4H FP inh: inhibitors of RNA binding by human eIF4H; Q15056; eIF4H fluorescence polarization binding assay; inhibition, % at 35 µM; hit rate 0.94% among 290,000; AID 2012;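 active = 50% or more with normal probe brightness, or confirmed in later tests; inconclusive = above 50% with abnormal brightness, or retests that disagree; inactive = below 50% or failed in later tests; about a fifth of its hits are not listed in these tables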;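 note: calls also rest on retests at 20 µM and on dose response follow-up; 0% = protein and probe with vehicle and 100% = probe without protein; strong numbers were not always called active; many hits fall short of the cut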
Yeast UUG start: yeast start codon fidelity modulation; activity score, % at 18.7 µM; hit rate 0.13% among 350,000; S. cerevisiae UUG-firefly luciferase reporter, luminescence/redox ratio;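 active = replicate mean at a twofold rise or more, about +100% in these data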;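 note: firefly luciferase made from a UUG start codon reports start codon fidelity; reporter light over untreated wells divided by growth signal over untreated wells; some hits fall short of that in this replicate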
eIF4H FP inh retest: recorded beside eIF4H FP inh, whose call it bears; inhibition, %; compound at 20 µM; confirmation average;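 mean of two retest wells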
PABP FP inh retest: recorded beside PABP FP inh, whose call it bears; inhibition, %; compound at 20 µM; confirmation repeats;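 mean of two retest wells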
MT1-MMP act inh RFP: also measured in MT1-MMP act inh; calls as there; RFP signal change, %; measured here: RFP expression control read;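 0 = vehicle wells; hits needed this value within 50% of zero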
* = called active by the depositor; i = inactive; ? = inconclusive; . = not tested or not shown; & = joins results of further samples.

SMILES	MT1-MMP act inh	MT1-MMP act inh RFP	Env fusion inh	PABP FP inh	CSC inhib	Rce1 inh	eIF4H FP inh	Yeast UUG start	others
Cc1ccc(O)c(-c2[nH]ncc2C(=O)c2ccc(Cl)cc2)c1	2	1	3	1	2	i	8	-17
O=c1oc2c(CN3CCOCC3)c(O)c(Cl)cc2c2c1CCC2	4	6	.	16	.	.	10	-18
CCOC(=O)C1(Cc2cccc(OC)c2)CCN(Cc2csc(C(C)=O)c2)CC1	1	-2	6	0	27	i	-3	.
Cc1nc(-c2ccccn2)nc(N(C)c2ccccc2)c1Cl	-1	-6	-8	-4	.	i	2	-32
Brc1cccc(CNCC2CCCO2)c1 (stereo unspecified)	1	3	-14	82	-13	i	-8	-10	eIF4H FP inh retest=-2;PABP FP inh retest=17
O=C(O)c1ccc2c3c(ncnc13)-c1ccccc1C2=O	.	.	.	?	-12	i	?	.
Cc1cc(=O)oc(C)c1C(=O)N[C@@H]1CCCCNC1=O	2	7	.	1	-15	i	4	-12
COc1ccc(CN(C(=O)CSc2nnc(-c3ccccc3C)o2)c2ccc(F)cc2)cc1	2	1	.	4	9	i	-2	-3
CNCc1ccccc1Sc1ccc(OC)c(OC)c1	-5	2	.	1	-12	i	2	-17
COc1ccc(NC(=O)Cc2c(C(=O)O)n(C)c3ccccc23)cc1OC	-1	-3	-10	2	-10	i	-2	.
CCOC(=O)C1CCN(C(=O)c2cccnc2)CC1	-1	1	-48	4	-1	i	0	-21
C[C@@H]1CN([C@@H](C)CO)C(=O)c2cc(Br)cnc2O[C@H]1CN(C)C(=O)C1CC1	6	6	7	.	.	.	.	13&-12&44
O=c1c2ccccc2nc(/C=C/c2ccc(Cl)cc2)n1CCO	1	2	-8	-2	26	i	-6	13
CCOc1ccccc1NC(=O)c1cc(C(=O)Nc2ccccc2OCC)cc(N2C(=O)CCC2=O)c1	3	10	3	1	-1	i	-2	-21
CCOc1ccc(C)cc1S(=O)(=O)NC1CCCCCC1	0	3	-5	-4	4	i	-13	3
CN(C)c1ccc(NC(=O)CSc2n[nH]c(-c3ccncc3)n2)cc1	7	4	-75	.	.	.	.	-3
Cc1nc2ccccc2c(=O)n1N	0	6	.	6	-18	i	0	-17
O=C(Nc1cc(C(F)(F)F)ccc1-n1cncn1)c1ccc([N+](=O)[O-])o1	7	-2	22	.	.	i	.	-11
N#Cc1ccccc1S(=O)(=O)N1CCN(C(=O)[C@H](Cc2ccccc2)NC(=O)c2ccco2)CC1	-6	-2	-12	.	.	.	.	-16
O=C(NNC(=O)c1ccccc1O)c1ccco1	-4	3	20	-12	-5	i	5	.
CCN(C(=O)COC(=O)/C=C/c1cccc([N+](=O)[O-])c1)c1c(N)n(Cc2ccccc2)c(=O)[nH]c1=O	-3	-3	.	.	8	.	.	-13
COc1cc(-c2cc(NC(C)=O)c3ncc(-c4ccccc4)n3c2)cc(OC)c1OC	1	5	-12	.	.	.	.	-8
Cc1cc(NC(=O)Cn2cnc3c(cnn3C(C)(C)C)c2=O)no1	2	5	.	9	-10	i	1	-1
Cc1cc(NC(=O)C(C)Oc2ccc(C(C)(C)C)cc2)no1 (stereo unspecified)	2	0	-3	-3	-39	i	-11	4
Cc1ccccc1NC(=O)CC(=O)c1ccccc1	3	0	-18	2	-7	i	3	-4
C=CCn1c(SCC(=O)O)nnc1-c1cccc(Cl)c1	0	2	.	7	-9	i	-4	2
CC(=O)Nc1ccc(NC(=O)C2CCCN2C(=O)Nc2ccc(F)c([N+](=O)[O-])c2)cc1 (stereo unspecified)	4	-1	0	5	-6	i	-11	-1
COC(=O)c1cc(NC2c3ccccc3C(=O)N2c2cccnc2)cc(C(=O)OC)c1 (stereo unspecified)	-4	2	14	1	-15	i	-4	-9
Cc1ccc(S(=O)(=O)N(C)c2ccc(OCC(=O)Nc3nc(-c4ccccc4)cs3)cc2)cc1	-4	-7	.	-2	0	i	-2	.
Cc1ccc(OCC(=O)O/N=C(\N)c2cccc([N+](=O)[O-])c2)cc1C	0	2	-20	-5	-4	i	8	.
CCOc1ccc(S(=O)(=O)Nc2ccc(C(=O)N(C)CC(=O)Nc3ccc(OC)cc3)cc2)cc1	2	-2	48	.	-8	i	.	.
CCn1c(COc2ccc(C(C)C)cc2)nnc1SCC(=O)Nc1nccs1	11	-1	-32	-7	-3	i	-12	-21
NC(=O)c1ccsc1N	.	.	.	24	-15	i	29	.
Fc1cccc(CCN2CCN=C2Nc2ccccc2)c1	5	7	-20	.	2	.	.	-12
COc1cccc(C(CC(=O)Nc2cccc3ccccc23)NC(=O)c2ccccc2)c1 (stereo unspecified)	-6	1	-30	0	11	i	-14	-9
COc1ccc(Cl)cc1Cn1c(C)c(C(=O)NCc2cccc(C(F)(F)F)c2)sc1=O	-4	-11	1	.	.	.	.	-14
Cc1ccc(C)c(NC(=O)C(OC(=O)c2cc[n+]([O-])cc2)c2ccccc2)c1 (stereo unspecified)	-3	0	-6	.	.	.	.	10
COc1cc(OC)c(OC)cc1CN1CCCC(C(=O)c2ccc3c(c2)OCO3)C1 (stereo unspecified)	3	0	13	1	0	i	0	.
COc1ccc(OC)c(NC(=O)CSc2nc(=O)n(Cc3ccccn3)c3c2CCC3)c1	-2	-7	4	.	-4	i	.	9
Cc1ccc(-n2ncc3c(=O)[nH]c(SCC(=O)N4CCN(c5ccccc5)CC4)nc32)cc1	-4	3	.	4	1	i	4	-9
CN(C(=O)CC1C(=O)NCCN1Cc1ccccc1C(F)(F)F)C1CCOCC1 (stereo unspecified)	1	3	-5	8	-8	i	5	-12
O=C1CSC(c2ccccn2)N1c1ccc(Br)cc1 (stereo unspecified)	1	0	-26	3	-2	i	-9	.
CCNC(=S)N/N=C(\C)c1ccc(Cl)s1	0	1	.	1	-10	i	4	.
Cc1ccc(OCC(=O)Nc2ccc3c(c2)OCO3)c([N+](=O)[O-])n1	-1	4	1	9	-18	i	9	.
C=CCn1c(CSc2nc3ccccc3s2)nnc1SCC(=O)NCc1ccco1	0	5	1	12	19	i	43	5
Cc1ccc(NC(=O)Nc2ccc3c(c2)N(C)C(=O)CS3)nc1	3	-4	.	7	-9	i	0	-15
CC1(C)Cc2c(c(-c3ccccc3)nc(N3CCCC3)c2C(N)=O)CO1	-6	4	.	-4	-7	i	7	-4
CCOC(=O)C(=CNc1ccc(C)cc1C)C(=O)OCC	1	2	-19	-5	0	i	-4	3
CN1CCN(C(=O)c2cc3ccccc3oc2=O)CC1	-1	1	-49	7	5	i	4	-9
O=C(Nc1ccc(N2CCOCC2)cc1)c1cccc(S(=O)(=O)N2CCOCC2)c1	4	4	.	.	-11	.	.	-23

Fetched by compound from the entries so far:
SMILES	MT1-MMP act inh	MT1-MMP act inh RFP	Env fusion inh	PABP FP inh	CSC inhib	Rce1 inh	eIF4H FP inh	Yeast UUG start	others
C=CCn1c(CSc2nc3ccccc3s2)nnc1SCC(=O)NCc1ccco1	0	5	1	12	19	i	43	5
CN(C(=O)CC1C(=O)NCCN1Cc1ccccc1C(F)(F)F)C1CCOCC1 (stereo unspecified)	1	3	-5	8	-8	i	5	-12
CN1CCN(C(=O)c2cc3ccccc3oc2=O)CC1	-1	1	-49	7	5	i	4	-9
Cc1ccc(OCC(=O)Nc2ccc3c(c2)OCO3)c([N+](=O)[O-])n1	-1	4	1	9	-18	i	9	.
Cc1ccc(NC(=O)Nc2ccc3c(c2)N(C)C(=O)CS3)nc1	3	-4	.	7	-9	i	0	-15
CC1(C)Cc2c(c(-c3ccccc3)nc(N3CCCC3)c2C(N)=O)CO1	-6	4	.	-4	-7	i	7	-4

Five entries out of the list, arranged by SMILES length, smallest number first.
SMILES	MT1-MMP act inh	MT1-MMP act inh RFP	Env fusion inh	PABP FP inh	CSC inhib	Rce1 inh	eIF4H FP inh	Yeast UUG start	others
O=C1CSC(c2ccccn2)N1c1ccc(Br)cc1 (stereo unspecified)	1	0	-26	3	-2	i	-9	.
CN1CCN(C(=O)c2cc3ccccc3oc2=O)CC1	-1	1	-49	7	5	i	4	-9
Cc1ccc(NC(=O)Nc2ccc3c(c2)N(C)C(=O)CS3)nc1	3	-4	.	7	-9	i	0	-15
CC1(C)Cc2c(c(-c3ccccc3)nc(N3CCCC3)c2C(N)=O)CO1	-6	4	.	-4	-7	i	7	-4
O=C(Nc1ccc(N2CCOCC2)cc1)c1cccc(S(=O)(=O)N2CCOCC2)c1	4	4	.	.	-11	.	.	-23

The results go on:
SMILES	MT1-MMP act inh	MT1-MMP act inh RFP	Env fusion inh	PABP FP inh	CSC inhib	Rce1 inh	eIF4H FP inh	Yeast UUG start	others
CN(C)C(=O)c1cn(-c2ccc(Cl)cc2)c(=O)c2ccccc12	-4	3	-6	2	4	i	2	.
Clc1ccccc1C1Nc2cccc3cccc(c23)N1	-3	7	16	?	3	i	?	-17
Cc1ccc(CNCC(O)(c2ccccc2)c2ccccc2)cc1	-2	-1	13	-6	-10	i	-5	-10
COc1ccccc1N1CCN(C(=O)CCSCc2ccccc2F)CC1	-8	-6	14	3	2	i	9	.
O=C(CC1SC(N2CCCC2)=NC1=O)Nc1ccc(C(=O)N2CCN(c3cccc(Cl)c3)CC2)cc1 (stereo unspecified)	2	-2	2	.	4	i	.	23
O=C(COC(=O)COc1ccc(Cl)cc1)NC1CC1	1	1	.	.	-11	.	.	-11
CC(=O)c1cccc(NC(=O)CCCNC(=O)c2ccc(Cl)cc2)c1	2	0	8	-3	-14	i	-3	-17
CN(C(=O)COc1ccccc1)c1nnc(-c2ccncc2)s1	-3	-1	1	-4	-4	i	-4	-10
CC1(C(=O)Nc2cccc3cccnc23)CCN1Cc1ccccc1OC(F)F (stereo unspecified)	-3	-13	-27	.	.	.	.	-27
COc1ccc2c(c1)c(=O)oc1c(C)c(OCc3cc(C(=O)O)oc3C)ccc12	0	2	-10	8.0*	23	i	84	-15	eIF4H FP inh retest=0;PABP FP inh retest=101*
Cc1cc(C)c(C)c(S(=O)(=O)N2CCCCC2C(=O)O)c1C (stereo unspecified)	0	-1	23	-12	-4	i	-1	5
COc1ccc(S(=O)(=O)N/N=C\c2ccc3c(c2)OCO3)c(OC)c1	-5	-29	43	0	-11	i	-2	-12
CSc1ccc(C(=O)/C=C/c2ccc(N)cc2)cc1	-1	-3	-18	-7	18	i	2	.
COc1ccccc1N1CCN(C2CCCN(S(=O)(=O)c3ccc(C)cc3)C2)CC1 (stereo unspecified)	4	1	6	-1	.	i	8	-16
